# Screening results deposited in PubChem by several laboratories.
# Mtb H37Rv = M. tuberculosis H37Rv growth inhibitors, H37Rv strain (AID 1626); hit rate 0.95% among 220,000; M. tuberculosis H37Rv growth inhibition; higher % means a stronger effect; inhibition, % at 10 µM; hits with a dose series show IC50 in µM;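 active = confirmed in a dose series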;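 note: bacteria incubated seven days before Alamar blue readout; 0% = bacteria only wells and 100% = bacteria with antibiotic wells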
# YopH PTP inh = YopH (Yersinia) phosphatase inhibition | hit rate 0.16% among 140,000 | inhibition, %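 (about 10 µM by stock and volumes)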 | AID 898 | fluorescence Ex485/Em525;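 active = inhibition of 50% or more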;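 note: controls were vehicle for no effect and minimum signal wells for full effect; inactives centre near -20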
# Mtb bLac sens = beta-lactam sensitization of Mtb H37Rv | hit rate 0.27% among 330,000 | AID 434955 | M. tuberculosis H37Rv growth with meropenem, percent inhibition; hits of this screen are not shown here | inhibition, % at 25 µM;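 active = about 74% or more and at least 40 points above the plate without the antibiotic, then above 30% in a dose series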;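 note: growth measured after seven days incubation then overnight dye step; 0% = bacteria only wells and 100% = bacteria with antibiotic; twin plates without the antibiotic show which effects depend on it; some results filed as inactive read as strong as hits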
# RecA intein inh = inhibitors of M. tuberculosis RecA intein splicing | P9WHJ3 | AID 2221 | inhibition, %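 (about 9 µM by stock and volumes)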 | hit rate 0.75% among 290,000 | cell-free RecA intein splicing, fluorescence; in the data active = inhibition above about 30%;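 note: 0% = vehicle wells and 100% = reference inhibitor control wells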
# Target sequence (P9WHJ3 whole entry, looked up): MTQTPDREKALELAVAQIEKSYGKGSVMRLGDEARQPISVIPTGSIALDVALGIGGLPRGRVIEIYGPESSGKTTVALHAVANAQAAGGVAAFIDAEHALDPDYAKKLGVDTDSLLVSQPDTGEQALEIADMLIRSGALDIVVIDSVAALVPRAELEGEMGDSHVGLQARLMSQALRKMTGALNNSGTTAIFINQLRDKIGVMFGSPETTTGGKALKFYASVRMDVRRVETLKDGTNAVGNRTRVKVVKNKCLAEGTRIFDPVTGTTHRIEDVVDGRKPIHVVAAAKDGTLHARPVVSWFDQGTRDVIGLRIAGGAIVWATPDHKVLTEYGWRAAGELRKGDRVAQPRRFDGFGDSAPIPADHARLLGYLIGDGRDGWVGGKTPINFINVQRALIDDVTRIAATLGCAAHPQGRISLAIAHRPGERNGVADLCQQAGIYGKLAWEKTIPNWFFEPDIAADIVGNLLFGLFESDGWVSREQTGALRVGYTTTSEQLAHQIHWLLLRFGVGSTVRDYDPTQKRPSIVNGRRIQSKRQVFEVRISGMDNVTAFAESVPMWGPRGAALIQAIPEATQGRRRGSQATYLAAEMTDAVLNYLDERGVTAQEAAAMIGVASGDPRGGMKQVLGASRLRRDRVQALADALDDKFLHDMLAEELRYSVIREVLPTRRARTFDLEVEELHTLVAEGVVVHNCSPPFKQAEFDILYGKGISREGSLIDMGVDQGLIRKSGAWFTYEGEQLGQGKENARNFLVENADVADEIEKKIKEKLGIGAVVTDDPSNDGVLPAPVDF
# Arbovirus anti = antivirals against arbovirus infection; inhibition, % at 10 µM; arbovirus infection cell-based antiviral screen; hit rate 0.37% among 200,000;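 active = inhibition from about 30%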;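 note: bluetongue infection of BSR cells; cell survival read as ATP light after 72 h; 0% = infected wells without compound and 100% = uninfected wells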
# Arbovirus anti repeat = also measured in Arbovirus anti; calls as there; inhibition, %; measured here: 10K subset replicate screen; many hits read low in the repeat;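 first of two repeat runs on a subset; 0% = infected and 100% = uninfected wells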
# Numbers without * were called inactive; . = no result given.
SMILES,Mtb H37Rv,YopH PTP inh,Mtb bLac sens,RecA intein inh,Arbovirus anti,others
COc1ccc(-n2nc(C(=O)NCC(=O)NCC3COc4ccccc4O3)c3ccccc3c2=O)cc1 (stereo not drawn),7.1%,.,-4.6,0.0,5.7,
O=C(O)CCCNS(=O)(=O)c1ccc(F)cc1,-3.5%,-41.2,-22.1,-0.4,1.6,Arbovirus anti repeat=2.9
COc1ccc(-c2noc(CN(C)Cc3ccc(C)o3)n2)cc1,6.2%,.,-5.8,1.0,-1.0,
Cc1cc(NC(=O)c2ccc(N3CCCC3)c([N+](=O)[O-])c2)no1,-1.5%,.,0.6,-2.9,13.2,
NS(=O)(=O)c1ccc(CCNC(=O)CCc2nc3sc4c(c3c(=O)[nH]2)CCCC4)cc1,.,.,-7.5,-1.9,.,
CC1CC(c2ccccc2)n2nc(N3C(=O)c4ccccc4C3=O)nc2N1 (stereo not drawn),42.4%,-9.0,4.9,0.7,0.7,
Cc1ccccc1-n1cc(C(=O)c2cc(Cl)ccc2O)cc(C#N)c1=O,6.5%,-22.9,0.7,-0.8,3.7,
CCOc1ccc(S(=O)(=O)N(CC(=O)NC2CCCC2)c2ccc(F)cc2)cc1,.,.,-10.1,4.8,.,
O=C(CN1CCN(c2nc(-c3ccc(F)cc3)cs2)CC1)NCc1ccc2c(c1)OCO2,56.9%,-38.0,97.6,3.4,-14.6,
O=C(NCC1CCCO1)c1nc(Cn2ccc([N+](=O)[O-])n2)no1 (stereo not drawn),.,.,-0.6,1.0,.,
COC(=O)C(C)Sc1nc2c(c(=O)n(C)c(=O)n2C)n1Cc1cccc(C)c1 (stereo not drawn),-4.8%,24.2,.,0.7,6.7,
Cc1cc(-c2ccc(S(=O)(=O)NCc3ccc(F)cc3)cc2)on1,.,.,4.5,-1.4,.,
CC1CCN(S(=O)(=O)c2ccc(NC(=O)CN3CCCCCC3)cc2)CC1,.,.,-6.4,0.5,.,
CC(=O)NCCC1CCN(C(=O)c2cc(COc3ccc(C)nc3)on2)CC1,.,.,4.2,-62.9,.,
O=c1c(-c2ccccc2)c(-c2ccccc2)oc2cc(O)cc(O)c12,.,.,7.8,19.4,.,
CCOc1ccc(NC(=O)CN(C)C(=O)c2cn(-c3ccccc3)nc2-c2cccs2)cc1OCC,.,.,54.8,0.0,.,
CCOC(=O)N1CCC(NC(=O)c2ccc3c(c2)sc2nc(-c4cccc(OC)c4)cn23)CC1,.,-11.9,.,7.9,1.9,
CCCC1C2C(=O)N(c3ccccc3OC)C(=O)C2ON1c1ccccc1 (stereo not drawn),-2.6%,-43.0,-11.5,-0.4,-3.6,
COc1cccc(/C=N/NC(=O)C(=O)Nc2ccccc2OC(F)(F)C(F)F)c1,12.4%,-13.7,2.4,0.3,-6.8,
NC(=O)COC(=O)c1ccc(Cl)c(S(=O)(=O)N2CCN(c3ccc(F)cc3)CC2)c1,3.3%,.,77.8,.,11.4,
O=C(N/N=C\c1ccc(-c2cccc(Cl)c2)o1)C(=O)NC1CCCC1,-7.6%,.,5.6,-4.7,-12.3,
Cc1[nH]nc2c1C(c1ccc(-c3ccccc3C#N)o1)C(C#N)=C(N)O2 (stereo not drawn),-1.7%,-9.3,-2.0,64.7*,-8.9,
O=c1c2ccccc2nnn1CSc1nc2ccccc2c(=O)n1Cc1ccco1,1.1%,.,1.0,3.9,.,
CCOc1ccc2nc(N(Cc3ccccc3)C(=O)CCNC(C)=O)sc2c1,.,.,3.0,1.8,.,
CCOCCn1c(CN2CCN(c3cccc(Cl)c3)CC2)nc2c1c(=O)n(C)c(=O)n2C,3.1%,-31.8,1.0,1.3,-15.6,

# Brought forward from above: seven entries, then new ones.
SMILES,Mtb H37Rv,YopH PTP inh,Mtb bLac sens,RecA intein inh,Arbovirus anti,others
COc1cccc(/C=N/NC(=O)C(=O)Nc2ccccc2OC(F)(F)C(F)F)c1,12.4%,-13.7,2.4,0.3,-6.8,
NC(=O)COC(=O)c1ccc(Cl)c(S(=O)(=O)N2CCN(c3ccc(F)cc3)CC2)c1,3.3%,.,77.8,.,11.4,
O=C(N/N=C\c1ccc(-c2cccc(Cl)c2)o1)C(=O)NC1CCCC1,-7.6%,.,5.6,-4.7,-12.3,
Cc1[nH]nc2c1C(c1ccc(-c3ccccc3C#N)o1)C(C#N)=C(N)O2 (stereo not drawn),-1.7%,-9.3,-2.0,64.7*,-8.9,
O=c1c2ccccc2nnn1CSc1nc2ccccc2c(=O)n1Cc1ccco1,1.1%,.,1.0,3.9,.,
CCOc1ccc2nc(N(Cc3ccccc3)C(=O)CCNC(C)=O)sc2c1,.,.,3.0,1.8,.,
CCOCCn1c(CN2CCN(c3cccc(Cl)c3)CC2)nc2c1c(=O)n(C)c(=O)n2C,3.1%,-31.8,1.0,1.3,-15.6,
COc1ccc2cc3cc(C(=O)NCCC(C)C)oc3nc2c1,.,.,0.1,-2.1,.,
O=C(Nc1ccc(S(=O)(=O)N2CCOCC2)cc1)c1cccnc1,-0.2%,.,-4.9,0.7,.,
COc1ccc(-c2nc(N)nc(C(F)(F)F)c2-c2cscn2)c(O)c1,3.6%,.,-3.5,2.6,.,
COC(=O)CCCC1=CC2=CC(=O)C(C)(OC(=O)c3cccs3)C(=O)C2=CN1C1CC1 (stereo not drawn),-8.1%,.,0.3,13.8,.,
C[C@H]1[C@H](c2ccccc2)C[C@@H](C(=O)O)C1(C)C,.,.,-4.0,0.2,.,
O=C(CSc1nc2ccccc2o1)N1CCCC1,-0.8%,-21.5,-3.7,0.8,5.3,
Cc1cc(C)nc(NS(=O)(=O)c2ccc(NC(=O)CN3C(=O)S/C(=C\c4ccccc4)C3=O)cc2)n1,-3.4%,-48.3,3.7,0.0,1.0,
COc1ccc(OC)c(NC(=O)c2c(NC(=O)c3ccco3)sc3c2CCC3)c1,-1.8%,6.9,.,-2.5,1.7,
CC(C)NC(=O)c1cccc(Br)c1,2.8%,1.1,4.8,0.2,-3.0,
COc1cccc(OC)c1C(=O)Nc1ccc(Cc2ccncc2)cc1,5.3%,-2.5,5.3,0.0,1.1,
O=C(CCNC(=O)c1ccc(Cl)cc1)NCc1cccc(C(F)(F)F)c1,.,.,-11.1,0.9,.,
COc1ccc(-n2c(Cc3cccn3C)nnc2SCC(=O)Nc2cccc(OC)c2)cc1,5.8%,-12.8,1.8,7.2,11.6,
CCC(Sc1nc2ccccc2c(=O)[nH]1)C(=O)Nc1ccc(C(C)=O)cc1 (stereo not drawn),10.9%,.,5.6,-0.9,-7.7,
CC(O)CNc1nc2c(c(=O)n(Cc3ccc(Br)cc3)c(=O)n2C)n1C (stereo not drawn),.,.,2.3,0.8,.,
C=C(C)Cn1c(CCCNC(=O)CC)nc2ccccc21,-1.0%,-0.7,-6.8,0.5,1.3,Arbovirus anti repeat=2.9
Cc1[nH]c2ccccc2c1/C=N/Nc1ccccc1[N+](=O)[O-],15.8%,.,12.8,1.6,7.0,
Cc1ccc(C(=O)Nc2nc3ccccc3s2)s1,.,-26.3,.,.,7.5,
Cc1ccccc1-c1cn(-c2ccccc2)c(=S)[nH]1,.,.,6.5,-3.7,.,
O=C(Nc1ccc(F)cc1)c1cccc(N2C(=O)C3C4C=CC(C4)C3C2=O)c1 (stereo not drawn),.,.,-13.3,1.0,.,
COc1ccc(S(=O)(=O)N2CCOC23CCN(C(=O)c2ccccc2OC)CC3)cc1,.,.,-12.4,-0.6,.,
Cc1ccc(N2C(=O)c3ccc(C(=O)NCCN4CCOCC4)cc3C2=O)cc1,.,-13.2,2.9,0.7,4.1,
COc1cc([C@H](Cc2ccccc2)NC(C)=O)oc(=O)c1,-6.5%,.,4.3,.,2.2,
CCN(CC(=O)NC(C)(C)C)C(=O)c1ccc2c(c1)S(=O)(=O)c1ccccc1C2=O,1.1%,.,-4.2,1.5,17.6,
Cc1cc(NC(=O)c2ccc([N+](=O)[O-])cc2)n(CCC#N)n1,.,.,-1.9,-0.1,.,
COCc1cc(C)nc(SC)c1C#N,-7.3%,.,-6.0,0.9,-1.0,

# Two records picked at random from the list so far:
SMILES,Mtb H37Rv,YopH PTP inh,Mtb bLac sens,RecA intein inh,Arbovirus anti,others
C[C@H]1[C@H](c2ccccc2)C[C@@H](C(=O)O)C1(C)C,.,.,-4.0,0.2,.,
Cc1ccc(N2C(=O)c3ccc(C(=O)NCCN4CCOCC4)cc3C2=O)cc1,.,-13.2,2.9,0.7,4.1,

# Five compounds out of the list, sorted by molecular weight, falling.
SMILES,Mtb H37Rv,YopH PTP inh,Mtb bLac sens,RecA intein inh,Arbovirus anti,others
CC(O)CNc1nc2c(c(=O)n(Cc3ccc(Br)cc3)c(=O)n2C)n1C (stereo not drawn),.,.,2.3,0.8,.,
Cc1ccc(N2C(=O)c3ccc(C(=O)NCCN4CCOCC4)cc3C2=O)cc1,.,-13.2,2.9,0.7,4.1,
O=C(CCNC(=O)c1ccc(Cl)cc1)NCc1cccc(C(F)(F)F)c1,.,.,-11.1,0.9,.,
O=C(Nc1ccc(F)cc1)c1cccc(N2C(=O)C3C4C=CC(C4)C3C2=O)c1 (stereo not drawn),.,.,-13.3,1.0,.,
COc1cc([C@H](Cc2ccccc2)NC(C)=O)oc(=O)c1,-6.5%,.,4.3,.,2.2,

# Other entries
SMILES,Mtb H37Rv,YopH PTP inh,Mtb bLac sens,RecA intein inh,Arbovirus anti,others
CC(C)[C@@H](CO)NC(=O)c1ccc2c3n(nc2c1)-c1ccccc1CO3,-13.7%,.,-3.6,-0.5,.,
CC(C)(C)OC(=O)NCCCC[C@H](NC(=O)c1nc[nH]c1C(=O)N[C@@H](CCCCNC(=O)OC(C)(C)C)C(=O)OC(C)(C)C)C(=O)OC(C)(C)C,16.4%,.,-4.6,-0.3,.,
N#CC1=C(N)Oc2c(oc(CO)cc2=O)C1c1ccccc1[N+](=O)[O-] (stereo not drawn),-14.5%,.,-0.6,-18.4,.,
COc1ccc(/C=N/NC(=O)c2sccc2OCc2ccc(F)cc2)cc1OC,-2.9%,-38.5,3.2,-0.4,-5.5,
N#C/C(=C(/O)CSc1nnc(Cc2cccs2)n1C1CCCCC1)c1nc2ccccc2[nH]1,>100µM*,-9.1,58.4,-0.9,6.8,
CS/C(=C/[N+](=O)[O-])Nc1cccc2c1C(C)CC2(C)C (stereo not drawn),-0.7%,.,7.8,66.7*,2.2,
COc1ccc(/C=N\NC(=O)c2cc(O)c(O)c(O)c2)cc1COc1ccc(C(=O)OCC(C)C)cc1,.,.,3.5,-0.1,.,
COc1ccc(-c2nn(-c3ccccc3)cc2CNC(C)Cn2cncn2)c(F)c1 (stereo not drawn),1.8%,.,13.9,-0.1,-3.1,
CCCNC(=O)c1ccccc1NC(=O)c1ccccc1N(C)S(=O)(=O)c1ccc(C)cc1,0.6%,-24.7,.,3.7,-13.3,
COCC(C)NC(=O)/C=C/c1ccc(OC)cc1 (stereo not drawn),-0.8%,.,-1.5,0.5,5.4,
Cn1nccc1C(=O)NCCN1C(=O)OC(C)(C)C1(C)O (stereo not drawn),0.7%,-18.3,-0.8,-2.8,9.0,
COc1ccc(C2CC(=O)c3c(C)nc(N4CCN(c5ccccc5)CC4)nc3C2)cc1 (stereo not drawn),-1.1%,-39.5,-7.7,-3.9,2.5,
O=C(NNc1nc2ccccc2o1)c1ccccc1,-1.3%,.,-7.2,-4.2,.,
CC(C)CCN1CCN(Cc2cc3ccccc3[nH]2)CC1CCO (stereo not drawn),.,.,-5.2,-1.4,.,
CCCCn1c(N)c(N(CCOC)C(=O)c2cc(-c3ccc(OC)c(OC)c3)nc3ccccc23)c(=O)[nH]c1=O,.,.,-2.4,0.1,.,
COc1cc(/C=C/C(=O)O)cc(OC)c1OC,-1.9%,.,2.9,2.3,.,
CCN1C(=O)[C@@H]2[C@@H](c3ccc(-c4ccc(C(C)=O)cc4)cc3)N3CCC[C@@]3(C(=O)OC)[C@@H]2C1=O,.,.,-3.0,-1.1,.,
COc1ccc(NCc2nnc(SCC(=O)c3ccc(C)cc3)o2)cc1,51.0%,-25.2,99.0,.,-22.3,
Cc1ccc2nc(SCc3nnc(-c4ccccc4Br)o3)[nH]c2c1,-7.0%,-18.4,-0.2,4.7,-3.1,
Cc1ccc(C)c(Cn2c(=O)n(-c3ccc(CC(=O)NCc4ccco4)cc3)c(=O)c3sccc32)c1,-4.6%,-36.9,-6.7,-0.1,-14.9,
COc1cccc(N2CCN(CC(=O)NC(C)c3ccccc3)CC2)c1 (stereo not drawn),.,.,-0.7,-1.9,.,
CCC(CC)C(=O)Nc1ccc(C(=O)c2ccccc2)cc1,8.2%,-34.8,2.6,1.5,-12.5,
COCCN(C(=O)c1csnn1)C(C(=O)NC1CCCCC1)c1cccs1 (stereo not drawn),-3.0%,-34.0,-0.6,0.9,2.0,

# An excerpt. The share of hits here may be higher or lower than overall.
